Sa growth 42C = S. aureus growth inhibition. S. aureus RN4220 growth, OD600, 20 h, 42 °C; active compounds read low. 170,000 tested, 0.53% active. relative growth, % (concentration not given with the values);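 active = growth at 42 °C up to 50% and 20 or more points under that at 30 °C, or under 10% at both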;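 also: 300 nL library stock went into each well; scaled to the means of positive and negative controls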
HCMV NEC inh = inhibitors of HCMV UL50-UL53 nuclear egress complex interaction | HTRF UL50-UL53 interaction, normalized percent inhibition | inhibition, % (test concentration not listed) | 190,000 tested, 0.15% active;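 active = both replicates at 50% or more, plus weaker picks with an unusually low signal ratio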;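 also: stock transfer was 100 nL into about 20 µL; 0% = negative control wells and 100% = wells with untagged competitor protein; inactives centre near -12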
GIV-Gai inh = blocks GIV peptide binding to rat Galpha-i3. percent of control (FP), % (no concentration beside the values). 210,000 tested, 0.42% active. P08753. Galpha-i3/FITC-GIV peptide fluorescence polarization, 90 min; active compounds read low; scaled: aluminum fluoride 0%, vehicle 100%;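 active = replicate mean at 85% of control or lower, very high polarization wells dropped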;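 also: wells of about 15 µL received 100 nL stock; the first replicate is given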
Target sequence (P08753 whole entry, looked up): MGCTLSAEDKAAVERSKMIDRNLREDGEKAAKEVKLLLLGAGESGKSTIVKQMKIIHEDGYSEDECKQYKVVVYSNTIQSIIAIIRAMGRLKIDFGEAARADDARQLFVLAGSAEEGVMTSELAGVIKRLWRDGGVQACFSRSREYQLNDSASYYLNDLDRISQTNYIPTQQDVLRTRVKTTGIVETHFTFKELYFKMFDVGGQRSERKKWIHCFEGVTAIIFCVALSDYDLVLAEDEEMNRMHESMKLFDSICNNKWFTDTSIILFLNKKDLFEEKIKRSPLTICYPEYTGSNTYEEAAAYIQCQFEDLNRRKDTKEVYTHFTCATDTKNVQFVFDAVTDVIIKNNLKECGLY
Sa growth 42C second temp = second read-out of Sa growth 42C, no call of its own (marks repeat the call); relative growth, %; measured here: growth at 30 °C;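 optical density after 20 h as mean of two plates; 100% = untreated growth and lower means inhibition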
Starred values were filed as active, the others as inactive; / = no result given.

SMILES | Sa growth 42C | Sa growth 42C second temp | HCMV NEC inh | GIV-Gai inh
COc1ccc(-c2noc(N(C)CC(=O)Nc3ccccc3OC)n2)cc1 | 97 | 87 | -9 | 103
O=C(O)CCN1C(=O)C(=O)/C(=C(/O)c2ccccc2)C1c1ccccc1 (stereo unspecified) | 118 | 83 | / | 105
CCOC(=O)c1cnc2ccc(C)cc2c1Nc1ccc(N2CCOCC2)cc1 | 93 | 83 | / | 99
CCOc1c(Cl)cc(C(=O)N(Cc2ccc(N(C)C)cc2)Cc2ccco2)cc1Cl | 105 | 84 | -6 | 102
CCOCC(=O)OCc1cc(=O)oc2cc(C)c(Cl)cc12 | 81 | 93 | -28 | /
CCOC(=O)C1=C(CN2CCn3cccc3C2C)NC(=O)NC1c1cccc(OC)c1OC (stereo unspecified) | / | / | -33 | 102
CCCc1nc2ccccc2n2c(-c3cccc(C)c3)c3c(=O)n(C)c(=O)n(C)c3c12 | 100 | 91 | -22 | 101
O=c1c(S(=O)(=O)c2ccc(F)c(Cl)c2)c[nH]c2c(F)c(Cl)ccc12 | / | / | -4 | 104
CCC1CN(C(=O)Nc2cccc3c2CCCC3)c2cc(C)ccc2O1 (stereo unspecified) | 59 | 76 | -11 | 103
O=C(CSc1nc2ccccc2c2nc3ccccc3n12)NCCc1ccccc1 | 95 | 98 | / | 107
CCc1cccc(NS(=O)(=O)c2cc(-c3cnc(C)o3)ccc2OC)c1 | 96 | 92 | / | 101
CC(=O)c1ccc(N2CCN(C(=O)C3CCN(S(=O)(=O)c4cccc5nonc45)CC3)CC2)cc1 | 120 | 88 | / | 105
Cn1cc(S(=O)(=O)N2CCCC2)cc1C(=O)N1CCN(c2ccccn2)CC1 | / | / | 37 | 107
O=S(=O)(c1ccc(Cl)cc1)c1ccc(NCCO)cc1 | 107 | 104 | 9 | /
CC(=O)n1c2ccccc2c2nc(Nc3ccccc3)sc21 | 103 | 71 | -4 | 99
O=c1c(Cl)c(O)cnn1C1CCCCC1 | 114 | 81 | -17 | 97
C=CCNC(=O)CN1CCN(C)CC1 | 83 | 86 | 8 | 97
CCN(CC)c1ccc(NS(=O)(=O)c2ccc(C)cc2)cc1 | 76 | 72 | / | 99
COc1ccc(-c2ocnc2C(N)=O)cc1 | 104 | 71 | 0 | 98
COc1ccc(-c2nn(CC(=O)Nc3ccccc3F)c3c2cnc2ccc(F)cc23)cc1 | 92 | 90 | / | 102
COc1ccc(-c2c3c(=O)n(C)c(=O)n(C)c3cn2-c2cccc(N)c2)cc1 | 110 | 77 | -24 | 107
CCOC(=O)c1c(C)oc2nc[nH]c(=O)c12 | 87 | 96 | -15 | /
CSc1cccc(N2C(=O)C3CC=C(C)CC3C2=O)c1 (stereo unspecified) | 104 | 94 | -9 | 102
COc1cccc(N2CCN(C(=O)c3[nH]c(C)c(S(=O)(=O)N4CCOCC4)c3C)CC2)c1 | / | / | -34 | 108
CC(C)NS(=O)(=O)c1cc(C(=O)N2CCOCC2)cs1 | / | / | -2 | 108
Later entries
SMILES | Sa growth 42C | Sa growth 42C second temp | HCMV NEC inh | GIV-Gai inh
COc1ccc(-c2nn3c(NC(C)c4ccccc4)cc(C)nc3c2C)cc1OC (stereo unspecified) | / | / | -26 | 101
CCCn1c(Nc2nc3ccccc3n2C)nc2ccccc21 | 124 | 104 | / | 98
CCc1ccccc1NC(=O)C(=O)NCC(c1cccnc1)N1CCN(c2ccccc2F)CC1 (stereo unspecified) | 90 | 103 | 3 | 106
CCN(c1ccccc1)c1cc(N2CCCCC2)c2nonc2c1[N+](=O)[O-] | / | / | -27 | 109
CCc1cccc(NC(=O)C2CCN(S(=O)(=O)c3ccc(Br)s3)CC2)c1 | 98 | 87 | -29 | 100
COC(=O)c1ccc(C(=O)OC)c(NC(=O)c2ccccc2)c1 | 89 | 81 | -6 | /
COc1cccc(-n2cc(C(=O)NCCc3ccc(C)cc3)c3ccccc3c2=O)c1 | 110 | 83 | / | 104
COc1ccc(/C=C/C(=O)Nc2ccc(C)cc2)cc1 | 112 | 102 | -23 | 105
Cc1cc(C)n(C(=O)CCCC(=O)n2nc(C)cc2C)n1 | 83 | 101 | 5 | /
CC(C)NC(=O)N1CCCC(c2cccc(C(=O)NCc3ccccc3)c2)C1 (stereo unspecified) | / | / | 9 | 110
Cn1cc(NC(=O)Nc2ccccc2F)c2ccccc2c1=O | 77 | 77 | / | 97
O=C1OCCC1Sc1nnc(-c2cccs2)o1 (stereo unspecified) | 91 | 95 | -1 | /
CC(=O)Nc1cccc(-c2cn3ccccc3n2)c1 | 101 | 91 | -2 | /
Nc1ccccc1S(=O)(=O)NCC(=O)O | 88 | 92 | -10 | 106
COc1cc(C2CC(=O)Nc3c2c(C)nn3-c2nncc(-c3ccccc3)n2)cc(OC)c1OC (stereo unspecified) | 78 | 96 | -38 | 97
CCOC(=O)c1c(NC(=O)c2cc3cc(Br)ccc3oc2=O)sc2c1CCC2 | / | / | 4 | 109
CC1(C)OC2C(CO)OC(n3ncc(=O)[nH]c3=O)C2O1 (stereo unspecified) | 108 | 81 | -3 | 99
Cn1c(SCC(=O)Nc2ccccc2)nc2c(c1=O)SCC2 | 88 | 93 | -8 | 104
Cc1ccc(S(=O)(=O)CC2CSc3nc(N)cc(=O)n32)cc1 (stereo unspecified) | 80 | 80 | -33 | 98
O=C(CCSc1ccccc1)NCCc1ccccc1 | 76 | 91 | -13 | 102
O=C(OCC(=O)N1CCC(Cc2ccccc2)CC1)c1ccccc1 | 99 | 89 | -14 | /
COc1ccc2[nH]c(=O)c(C(c3nnnn3Cc3ccccc3)N3CCc4ccccc43)cc2c1 (stereo unspecified) | 105 | 91 | -30 | 111
Cc1cccc(C)c1OCC(=O)Nn1c(=O)[nH]c2ccccc2c1=O | 111 | 94 | -3 | 97
Cc1cccc(-c2nn3c(=O)cc(N4CCN(S(=O)(=O)c5c(C)noc5C)CC4)nc3s2)c1 | / | / | -9 | 104
N#CCOc1ccc(-c2ccccc2)cc1 | 77 | 98 | -4 | 101
Continued:
SMILES | Sa growth 42C | Sa growth 42C second temp | HCMV NEC inh | GIV-Gai inh
O=c1n(Cc2ccccc2)nc2n1-c1ccccc1OC2 | 78 | 105 | 15 | 105
Cc1ccc(F)cc1NC(=O)[C@H](C)N1C(=O)C2CC=CCC2C1=O (stereo partly specified) | 96 | 98 | 16 | /
CCOc1ccccc1CNC(=O)c1[nH]c2ccccc2c1Sc1ccccc1 | 109 | 104 | -22 | 96
O=C(COc1ccc2oc3c(c2c1)CCCC3)Oc1ccc(-c2nnco2)cc1 | 105 | 89 | -24 | /
COc1cccc(NC(=O)c2c(-c3ccc(C)cc3)nnc3ccccc23)c1 | 95 | 90 | / | 106
Cc1nc(N)oc1C | 83 | 87 | -30 | /
COc1ccc(/C=C2/SC(=O)N(CCC(=O)Nc3ccccc3Br)C2=O)cc1 | / | / | -14 | 108
CCN1CCN(C(=O)c2cc3c(=O)n(Cc4ccc(OC)cc4)ccc3nc2C)CC1 | 95 | 88 | -15 | 103
COc1ccc(N2CCN(c3ncnc4onc(-c5ccc(F)cc5)c34)CC2)cc1 | 119 | 99 | / | 104
CC(C)CCn1c(=O)c2cccnc2n(CC(=O)Nc2ccc(F)cc2)c1=O | 106 | 90 | -1 | 107
Cc1nnc(C)n1/N=C/C(Cl)=C/c1ccccc1 | 89 | 95 | 15 | /
Cc1c(C(=O)NCc2ccc(F)cc2)sc2nc(-c3ccc(F)cc3)cn12 | 88 | 93 | / | 105
Cc1cccc(C(=O)NCC(c2cccs2)S(=O)(=O)c2cccs2)c1 (stereo unspecified) | 122 | 82 | / | 104
O=C(NCc1nc(-c2cccnc2)n[nH]1)Nc1ccc(Cl)cc1C(F)(F)F | 104 | 86 | -3 | 103
C=CCNS(=O)(=O)CC12CCC(CC1=O)C2(C)C (stereo unspecified) | 102 | 90 | -8 | /
Cc1ccc2[nH]c(=O)c(CN(Cc3ccccc3)C(=O)N(C)C)cc2c1 | 85 | 88 | -32 | 102
COc1ccc(C(=O)NCCSc2nnnn2-c2ccccc2)cc1 | 94 | 84 | -4 | 100
CNC1=CC(=O)CC(c2ccccc2)C1 (stereo unspecified) | 112 | 87 | -32 | /
C=CCOC(=O)c1c(C)oc2ccc(NS(=O)(=O)c3ccc(C)cc3)cc12 | / | / | -25 | 123
O=C(CSc1ncc(C(F)(F)F)cc1Cl)NCCN1C(=O)CSC1=O | 93 | 94 | 4 | /
CC1(C)NC(=O)N(CC(O)CN2C(=O)NC(C)(C)C2=O)C1=O | 106 | 95 | -19 | 100
CC(C)Nc1nccc(C(F)(F)F)n1 | 112 | 94 | / | 105
CC(C)(C(=O)Nc1ccccc1)S(=O)(=O)c1ccc(C(F)(F)F)cn1 | 120 | 92 | -3 | 107
Cc1ccc(-c2nnc(NC3CCCC3)s2)cc1 | 104 | 76 | -4 | 95
COc1ccc(Br)cc1C(=O)Nc1ccc(-c2nc3ncccc3o2)cc1C | 98 | 92 | -17 | 103

17 consecutive compounds from above, quoted:
SMILES | Sa growth 42C | Sa growth 42C second temp | HCMV NEC inh | GIV-Gai inh
COc1ccc(-c2noc(N(C)CC(=O)Nc3ccccc3OC)n2)cc1 | 97 | 87 | -9 | 103
O=C(O)CCN1C(=O)C(=O)/C(=C(/O)c2ccccc2)C1c1ccccc1 (stereo unspecified) | 118 | 83 | / | 105
CCOC(=O)c1cnc2ccc(C)cc2c1Nc1ccc(N2CCOCC2)cc1 | 93 | 83 | / | 99
CCOc1c(Cl)cc(C(=O)N(Cc2ccc(N(C)C)cc2)Cc2ccco2)cc1Cl | 105 | 84 | -6 | 102
CCOCC(=O)OCc1cc(=O)oc2cc(C)c(Cl)cc12 | 81 | 93 | -28 | /
CCOC(=O)C1=C(CN2CCn3cccc3C2C)NC(=O)NC1c1cccc(OC)c1OC (stereo unspecified) | / | / | -33 | 102
CCCc1nc2ccccc2n2c(-c3cccc(C)c3)c3c(=O)n(C)c(=O)n(C)c3c12 | 100 | 91 | -22 | 101
O=c1c(S(=O)(=O)c2ccc(F)c(Cl)c2)c[nH]c2c(F)c(Cl)ccc12 | / | / | -4 | 104
CCC1CN(C(=O)Nc2cccc3c2CCCC3)c2cc(C)ccc2O1 (stereo unspecified) | 59 | 76 | -11 | 103
O=C(CSc1nc2ccccc2c2nc3ccccc3n12)NCCc1ccccc1 | 95 | 98 | / | 107
CCc1cccc(NS(=O)(=O)c2cc(-c3cnc(C)o3)ccc2OC)c1 | 96 | 92 | / | 101
CC(=O)c1ccc(N2CCN(C(=O)C3CCN(S(=O)(=O)c4cccc5nonc45)CC3)CC2)cc1 | 120 | 88 | / | 105
Cn1cc(S(=O)(=O)N2CCCC2)cc1C(=O)N1CCN(c2ccccn2)CC1 | / | / | 37 | 107
O=S(=O)(c1ccc(Cl)cc1)c1ccc(NCCO)cc1 | 107 | 104 | 9 | /
CC(=O)n1c2ccccc2c2nc(Nc3ccccc3)sc21 | 103 | 71 | -4 | 99
O=c1c(Cl)c(O)cnn1C1CCCCC1 | 114 | 81 | -17 | 97
C=CCNC(=O)CN1CCN(C)CC1 | 83 | 86 | 8 | 97

New compounds follow.
SMILES | Sa growth 42C | Sa growth 42C second temp | HCMV NEC inh | GIV-Gai inh
CCc1c(C)c(C#N)c2nc3ccccc3n2c1NC1CCCC1 | 99 | 93 | -23 | 93
COc1ccc(NC(=O)CSc2nn3c(=O)c(Cc4ccccc4)nnc3s2)cc1 | / | / | 3 | 102
O=C(C1CCCN1S(=O)(=O)c1ccc(Cl)c(Cl)c1)N1CCOCC1 (stereo unspecified) | 121 | 87 | -4 | /
Cc1c(C2CCN(S(=O)(=O)c3cnc[nH]3)CC2)c2ccccc2n1Cc1cccc(Cl)c1 | / | / | -20 | 107
Cc1ccc(NC(=S)N(Cc2cccc(C)c2)c2ccccn2)cc1 | 96 | 88 | / | 102
CC(=O)Nc1ccc(S(=O)(=O)N(CCCN2CCOCC2)Cc2cccs2)cc1 | 104 | 80 | 5 | 101
CN(C)S(=O)(=O)c1cccc(COc2ccc(C#N)cc2)c1 | 108 | 89 | -25 | /
CC(=O)Nc1ccc(Nc2ncnc3c2c(-c2ccccc2)cn3-c2ccc(C)c(Cl)c2)cc1 | 114 | 89 | / | 105
CCOC(=O)C1=C(C)N(C)C(=S)N(C)C1c1ccc(OC)cc1 (stereo unspecified) | 122 | 99 | -11 | /
Cc1c(C(=O)Nc2ccccc2)csc1-c1ccccc1 | 89 | 92 | -6 | /
O=C(OCC(=O)N1CCCCC1)c1ccccc1Cc1ccccc1 | 129 | 93 | -25 | /
Cc1ccc(-c2nn[nH]n2)cc1 | 97 | 102 | -1 | 104

Screening data deposited in PubChem BioAssay by ICCB-Longwood Screening Facility, Harvard Medical School.
